EPAC1 ag val = human EPAC1 agonism, validation | O95398 | EPAC1 Rap1b BODIPY-GDP exchange, fluorescence | Potency, µM, for the others: max response, positive = active, hits mostly activators | hit rate 1% among 16,000 | AID 1645883; active means well fitted activation curve with a large enough effect; inconclusive means small, poorly fitted or top-dose-only effect; inactive means no such curve, though single readings can be large or run the other way;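 further: nearly all actives have a fitted effect of over 70% in size; series mostly up to about 76 or 150 µM; scaled to a cAMP control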
Target sequence (O95398 whole entry, looked up): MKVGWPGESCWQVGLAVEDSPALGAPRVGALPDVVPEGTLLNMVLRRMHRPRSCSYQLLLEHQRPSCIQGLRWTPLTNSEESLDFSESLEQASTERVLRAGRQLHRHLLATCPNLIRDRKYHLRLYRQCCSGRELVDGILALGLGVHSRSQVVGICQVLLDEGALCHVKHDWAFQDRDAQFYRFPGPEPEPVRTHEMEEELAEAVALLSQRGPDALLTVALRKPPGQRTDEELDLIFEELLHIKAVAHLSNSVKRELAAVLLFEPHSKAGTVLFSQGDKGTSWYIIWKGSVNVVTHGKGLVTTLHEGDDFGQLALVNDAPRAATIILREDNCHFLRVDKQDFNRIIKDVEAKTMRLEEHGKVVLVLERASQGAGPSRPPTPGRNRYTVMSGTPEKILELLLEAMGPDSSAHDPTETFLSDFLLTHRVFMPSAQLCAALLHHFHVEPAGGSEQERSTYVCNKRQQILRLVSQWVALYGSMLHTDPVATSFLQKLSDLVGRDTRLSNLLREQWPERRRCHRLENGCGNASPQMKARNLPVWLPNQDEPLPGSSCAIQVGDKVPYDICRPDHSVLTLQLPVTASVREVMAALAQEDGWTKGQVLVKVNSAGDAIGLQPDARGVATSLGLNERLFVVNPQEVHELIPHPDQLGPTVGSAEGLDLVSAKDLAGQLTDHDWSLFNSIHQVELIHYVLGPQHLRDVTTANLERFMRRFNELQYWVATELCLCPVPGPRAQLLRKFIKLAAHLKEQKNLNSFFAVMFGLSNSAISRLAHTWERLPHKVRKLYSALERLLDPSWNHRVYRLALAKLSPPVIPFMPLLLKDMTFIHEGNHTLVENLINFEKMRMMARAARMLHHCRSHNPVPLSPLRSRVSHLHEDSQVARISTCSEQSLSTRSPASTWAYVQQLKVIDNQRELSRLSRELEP
Numbers without * were called inactive; ? = inconclusive; & = joins results of further samples; [ ] = remark or other dose. On the % scale 0 is the no-effect control and ±100 the full control effect; potency means the concentration at half of the fitted maximal effect. The list is partial. The share of hits here may be higher or lower than overall.

SMILES	EPAC1 ag val
COc1ccc(-c2nc3cnc(Oc4cccc(Cl)c4)nc3n(C[C@H]3CCCO3)c2=O)cc1	?
CCC(=O)OC1CCC2C3CCc4cc(O)ccc4C3CC[C@]12C (stereo partly specified)	5%
Cc1ncoc1C(=O)N1CCOc2ccc(CN3CCC(Oc4cccnc4)CC3)cc2C1	-18%
FC(F)(F)c1ccccc1-c1nc(NCc2cccs2)c2ccccc2n1	-6%
CN[C@@H]1[C@@H](O[C@H]2O[C@H](CO)[C@@H](N)[C@H](O)[C@H]2O)O[C@H]2C[C@@H](N)[C@@H](O[C@H]3[C@H](O)[C@@H](O)[C@H](N)C[C@@H]3N)O[C@@H]2[C@@H]1O	-4%
CN[C@H]1CC[C@@H](c2ccc(Cl)c(Cl)c2)c2ccccc21	0%&-23%
C(=C\c1ccnc2ccccc12)/c1ccc2ccccc2n1	?
C[C@]12CC[C@@H]3c4ccc(O)cc4CC[C@H]3[C@@H]1CC[C@@H]2O	-2%&-4%&1%&-6%
NC(=O)NO	0%&24%
COc1cccc(CN2c3ccc(Br)cc3C(=O)CS2(=O)=O)c1	?
O=c1c(O)c(-c2ccccc2)oc2cc(O)cc(O)c12	6%
COc1ccc2ccccc2c1CN1CCOc2ccc(CN3CCN(CCO)CC3)cc2C1	6%
COc1ccc(-c2cc(=O)c3c(O)c(OC)c(OC)c(OC)c3o2)cc1	-9%
CCC1CN(CCNC(=O)c2cccc3nccnc23)Cc2cc(OC)ccc2O1 (stereo unspecified)	4%
CC(=O)c1ccc(C(=O)N2CCc3c(cnc(C)c3CNC(=O)c3ccc4c(c3)OCO4)C2)s1	-1%
COc1ccc(C(=O)c2ccccc2)c(O)c1O	6%
COc1ccc(CN2CCOc3ccc(CN4CCC(Oc5cccnc5)CC4)cc3C2)cc1C	5%
COc1ccc(CN([C@H](C)CO)S(=O)(=O)N(Cc2ccccc2)[C@H](CO)C(C)C)cc1	-17%
CC(C)Cc1nc2cc(NS(=O)(=O)N(C)C)cc(C(=O)N3CCc4ccccc4C3)c2n1C	-2%
O=c1c(-c2cccs2)nc2cncnc2n1Cc1ccccc1	24%
C/C=C/c1ccc2oc(-c3ccc(O)cc3)c(C)c2c1	?
COc1cc(C)c(CN2CCOc3ccc(C(O)c4cccnc4)cc3C2)cc1C (stereo unspecified)	6%
CCC1CN(CC(=O)NCc2cc(C)n(C)n2)Cc2cc(OC)ccc2O1 (stereo unspecified)	11%
CSc1nc(N)c2ncn([C@@H]3O[C@H](COP(=O)(O)OP(=O)(O)OP(=O)(O)O)[C@@H](O)[C@H]3O)c2n1	5%&-3%
CC(C)c1c(O)ccc2c1CCC1C(C)(C)CCC[C@@]21C (stereo partly specified)	13%

Later entries
SMILES	EPAC1 ag val
Cc1ccc(-c2nn(C(C)(C)C)c3ncnc(N)c23)cc1	-11%&-14%
O=C(CO)[C@@H](O)[C@H](O)[C@@H](O)CO	10%
CC(C)C[C@@H](CO)N1CCN(CCc2ccccc2)CCC1=O	28%
CC(=O)N1CCC2(CC1)CN(c1cccc(-c3ccccc3)c1)C2	28%
COc1cccc(CC(=O)NCC2Cc3cc(Cl)cc(-c4ncccn4)c3O2)c1 (stereo unspecified)	-6%
CN(C)C(=O)c1ccc(-c2cc(NCc3cccs3)ncn2)cc1	-2%
COc1ccc2c(=O)c(CC(=O)O)coc2c1	?
Cc1c(CCO)sc[n+]1CC(=O)c1ccc(F)cc1	-28%
COc1cccc(Cn2c(=O)cnc3cnc(Nc4ccccc4)nc32)c1	-95%[inhibitor]
COc1ccc(NC(=O)[C@@H]2CC=C[C@@H]3CCN(C4CC4)C(=O)[C@@H]32)cc1	?
Cc1cc([C@](C)(N)C(=O)O)ccc1P(=O)(O)O	-3%
COc1cccc(Cn2c(=O)c(-c3ccc(Cl)cc3)nc3cnc(N4CCN(C)CC4)nc32)c1	12%
COC(=O)N1CCC2(CCCN(Cc3ccccc3OC)C2)CC1	-31%[inhibitor]
O=C(N[C@@H]1c2ccccc2C2(CCN(C(=O)c3cc4ccccc4oc3=O)CC2)[C@H]1O)c1cccnc1	-17%
C=C[C@@H]1c2ccccc2N(S(=O)(=O)c2ccc(C)cc2)[C@H](c2ccc(C(F)(F)F)cc2)C1(C#N)C#N	7%
Cc1oc(-c2ccccc2NC(=O)C2CCC2)nc1CNC(=O)c1ccccn1	6%
O=C(c1cnccn1)N1CCC[C@@]2(CCN(c3cccc(-c4ccccc4)c3)C2)C1	100µM*
NCCSSCCN	-6%&-5%
O=C(NCCc1nnc2n1CCN(Cc1ccc(F)cc1)CC2)c1ccco1	-10%
COC(=O)N1CCC2(CCN(C(=O)Nc3ccccc3)CC2)CC1	-28%
CO[C@]1(C2=NCCN2)COc2ccccc2O1	-7%
Cc1nc2cnc(Oc3ccccc3)nc2n(CCC#N)c1=O	21%
NCCC(O)C(=O)NC1C[C@@H](N)[C@H](O[C@@H]2OC(CN)C(O)C(O)C2O)C(O)[C@H]1O[C@H]1OC(CO)C(O)C(N)C1O (stereo partly specified)	10%
O=C(O)/C=C/c1ccc2c(c1)S(=O)(=O)N(C1CCCC1)[C@H]2CC(=O)O	-22%
COC(=O)c1c(OCc2ccc(F)cc2)cc(=O)n2c1CCN(Cc1ccc3cccnc3c1)CC2	2%

The last 7 compounds of the section above are carried over, then new ones follow.
SMILES	EPAC1 ag val
O=C(NCCc1nnc2n1CCN(Cc1ccc(F)cc1)CC2)c1ccco1	-10%
COC(=O)N1CCC2(CCN(C(=O)Nc3ccccc3)CC2)CC1	-28%
CO[C@]1(C2=NCCN2)COc2ccccc2O1	-7%
Cc1nc2cnc(Oc3ccccc3)nc2n(CCC#N)c1=O	21%
NCCC(O)C(=O)NC1C[C@@H](N)[C@H](O[C@@H]2OC(CN)C(O)C(O)C2O)C(O)[C@H]1O[C@H]1OC(CO)C(O)C(N)C1O (stereo partly specified)	10%
O=C(O)/C=C/c1ccc2c(c1)S(=O)(=O)N(C1CCCC1)[C@H]2CC(=O)O	-22%
COC(=O)c1c(OCc2ccc(F)cc2)cc(=O)n2c1CCN(Cc1ccc3cccnc3c1)CC2	2%
O=c1c(-c2ccc(F)cc2)nc2cnc(Nc3ccccc3)nc2n1C1CC1	-41%[inhibitor]
CN(Cc1ccco1)c1cc(-c2cccc(C#N)c2)ncn1	-5%
COc1ccc(C(=O)N2CCC3(CCN(Cc4ccccc4)CC3)CC2)cc1	-43%[inhibitor]
CC1=CC(=C(c2ccc(N)cc2)c2ccc(N)cc2)C=CC1=N	16%
CC#CCOC(=O)c1c(C)nc2sc3c(c2c1N)CC[C@@H](O)C3	-4%
C=CC(COCc1ccccc1)N([C@@H](Cc1ccccc1)C(=O)OC)S(=O)(=O)c1ccccc1Br (stereo partly specified)	-8%
CCC(C)[C@H]1O[C@]2(C=C[C@@H]1C)C[C@@H]1C[C@@H](C/C=C(\C)[C@@H](O[C@H]3C[C@H](OC)[C@@H](O[C@H]4C[C@H](OC)[C@H](NC(C)=O)[C@H](C)O4)[C@H](C)O3)[C@@H](C)/C=C/C=C3\CO[C@@H]4[C@H](O)C(C)=C[C@@H](C(=O)O1)[C@]34O)O2 (stereo partly specified)	-10%&-153%
O=C(c1csnn1)N1CCC2(CCCN(c3cccc(-c4ccccc4)c3)C2)CC1	?
CCn1nc(C)cc1C(=O)NCC1CCC2(CCN(Cc3ccccc3F)CC2)O1 (stereo unspecified)	-11%
Nc1ccn([C@@H]2O[C@H](CO)[C@H](O)C2(F)F)c(=O)n1	8%
Cc1noc(C)c1-c1cc(N(C)Cc2ccco2)ncn1	-7%
C[C@](Cc1ccc(O)c(O)c1)(NN)C(=O)O	-4%
CCCCN1CCCC1C(=O)Nc1c(C)cc(C)cc1C (stereo unspecified)	-15%
COc1ccc(-c2ccnc(-n3ncc(C(=O)NCc4ccon4)c3C3CC3)n2)cc1F	-11%
O=c1c(-c2ccc(F)cc2)nc2cnc(Oc3cccc(Cl)c3)nc2n1C1CC1	-32%[inhibitor]
CCCCCc1ccc(C)cc1O	-95%[inhibitor]
Cc1noc(C)c1C(=O)N1CCC[C@@]2(CCN(C(=O)Nc3ccccc3)C2)C1	-19%
CN(C)C(=O)c1ccc(-c2cncnc2N2CCNCC2)cc1	-17%
CC(C)CCC[C@@H](C)[C@H]1CC[C@H]2[C@@H]3CC=C4C[C@@H](O)CC[C@]4(C)[C@H]3CC[C@]12C	-6%
COc1cc(N)c(Cl)cc1C(=O)OCCN1CCCCC1	14%
Cc1ccccc1CN1CCCOCCS1(=O)=O	-9%
CN(C)c1ccc(/C=C/c2cc(N(C)C)nc3ccccc23)cc1	-15%
COc1cccc(Cn2c(=O)c(-c3cn(C)c4ccccc34)nc3cnc(N4CCNCC4)nc32)c1	?
CC(=O)Nc1ccc(SCCN2CC[C@@H](C(C)(C)C)CCC2=O)cc1	-39%[inhibitor]
Cc1[nH]c(=O)c(C#N)cc1-c1ccc2nccn2c1	1%&4%

Later entries.
SMILES	EPAC1 ag val
COc1cccc(Cn2c(=O)c(-c3ccccc3)nc3cnc(N4CCN(C)CC4)nc32)c1	-54%[inhibitor]
O=S1(=O)CCOC[C@H](CC2CCCCC2)N1Cc1ccccc1	-69%[inhibitor]
COc1ncc2nc(-c3cccs3)c(=O)n(-c3ccccc3)c2n1	?
CCCOc1cc(N)ccc1C(=O)OCCN(CC)CC	?
Cc1nn(-c2ccc(F)cc2)c(C)c1CNC(=O)c1ccc(-n2cc(NC(=O)c3ccoc3)cn2)cc1	-14%
O=C(OCCN1CCOCC1)C1(c2ccccc2)CCCCC1	-5%&0%&0%
O=C(c1ccc2[nH]ccc2c1)N1CCOc2ccc(CN3CCN(c4ccccn4)CC3)cc2C1	-1%
Cc1nc2cnc(OCc3ccccc3)nc2n(CCc2ccccc2)c1=O	-7%
Cn1c(=O)c2[nH]c(-c3ccccc3)nc2n(C)c1=O	-2%
COc1ncc2nc(C)c(=O)n(-c3ccccc3)c2n1	-15%
CC(C)c1cnc(NC(=O)Cc2ccccc2)s1	-4%
Cc1cnc(-n2ncc(C(=O)NCCCc3ccncc3)c2C)nc1-c1ccc(F)cc1	-7%
CCc1cccc2c(C(O)c3c[nH]c4ccccc34)c[nH]c12 (stereo unspecified)	?
COc1ccc2c(c1)OC(C)CN(CCNC(=O)c1csc(-c3cccs3)n1)C2 (stereo unspecified)	1%
Cc1noc(C)c1C(=O)N1CCC2(CCCN(C(=O)NC(C)C)C2)CC1	-40%[inhibitor]
CN1CCN(c2ncc3nc(-c4ccc(Cl)cc4)c(=O)n(-c4ccccc4)c3n2)CC1	-13%
O=c1c(-c2ccc(O)cc2)coc2cc(O)cc(O)c12	-5%&-23%&-112%
CC(O)(P(=O)(O)O)P(=O)(O)O	-41%[inhibitor]
C1CCC(N=C(NC23CC4CC(CC(C4)C2)C3)N2CCOCC2)CC1	1%
O=C1CC2(CCCC2)CC(=O)N1CCNC[C@H]1COc2ccccc2O1	2%
CN(C)CC(C)(O)c1ccc2c(c1)CN(Cc1cn(C)c3ccccc13)CCO2 (stereo unspecified)	0%
COc1ncc2nc(-c3cc(F)cc(F)c3)c(=O)n(C3CC3)c2n1	-112%[inhibitor]
CC1=CC(=O)C2=C(C)C[C@@H]3OC(=O)[C@@H](C)[C@H]3C=C12	-7%
CC(=O)N[C@@H](Cc1c[nH]c2ccccc12)C(=O)O	-16%
CC(=O)OC1CC[C@@]2(C)C3CC(=O)[C@]4(C)C(C(C)=O)=CCC4C3CC[C@H]2C1 (stereo partly specified)	-15%

Single entries from the list:
In EPAC1 ag val, CN1CCN(c2ncc3nc(-c4ccc(Cl)cc4)c(=O)n(-c4ccccc4)c3n2)CC1 has -13%
In EPAC1 ag val, Cc1noc(C)c1C(=O)N1CCC2(CCCN(C(=O)NC(C)C)C2)CC1 has -40%[inhibitor]
In EPAC1 ag val, CC(O)(P(=O)(O)O)P(=O)(O)O has -41%[inhibitor]
In EPAC1 ag val, CC(=O)OC1CC[C@@]2(C)C3CC(=O)[C@]4(C)C(C(C)=O)=CCC4C3CC[C@H]2C1 (stereo partly specified) has -15%

Two records picked at random from the list so far:
SMILES	EPAC1 ag val
CN(C)CC(C)(O)c1ccc2c(c1)CN(Cc1cn(C)c3ccccc13)CCO2 (stereo unspecified)	0%
COc1ncc2nc(-c3cccs3)c(=O)n(-c3ccccc3)c2n1	?

Ordered by value in EPAC1 ag val (smallest number first): three from the list above
SMILES | EPAC1 ag val
CN(C)C(=O)c1ccc(-c2cncnc2N2CCNCC2)cc1 | -17%
COc1ncc2nc(C)c(=O)n(-c3ccccc3)c2n1 | -15%
COc1cc(C)c(CN2CCOc3ccc(C(O)c4cccnc4)cc3C2)cc1C (stereo unspecified) | 6%
